Sa growth inh = S. aureus growth inhibition at 42 and 30 °C, primary screen, LtaS inhibitor project, RN4220, two temperatures; OD600, 20 h, 42 °C; stronger effect = lower value; relative growth, % (no concentration beside the values); hit rate 0.53% among 170,000; AID 720641, 2013;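 active means growth at 42 °C up to 50% and 20 or more points under that at 30 °C, or under 10% at both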;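 further: 300 nL library stock went into each well; scaled to the means of positive and negative controls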
HCMV NEC inh = inhibitors of HCMV UL50-UL53 interaction, biochemical, HTRF | hit rate 0.15% among 190,000 | AID 1918969, 2023 | HCMV UL50-UL53 nuclear egress complex (human cytomegalovirus) | normalized percent inhibition | inhibition, % (test concentration not listed);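 active means both replicates at 50% or more, plus weaker picks with an unusually low signal ratio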;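 further: stock transfer was 100 nL into about 20 µL; 0% = negative control wells and 100% = wells with untagged competitor protein; inactives centre near -12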
GIV Gai3 FP = inhibitors of GIV peptide binding to Galpha-i3, primary screen, biochemical, fluorescence polarization, FITC-GIV GBA peptide, rat Galphai3; 90 min; stronger effect = lower value; scaled: aluminum fluoride 0%, vehicle 100%; percent of control (FP), % (no concentration beside the values); hit rate 0.42% among 210,000; Guanine nucleotide-binding protein G(i) subunit alpha-3 (Rattus norvegicus), P08753; AID 1224905, 2016;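 active means replicate mean at 85% of control or lower, very high polarization wells dropped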;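 further: wells of about 15 µL received 100 nL stock; the first replicate is given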
Target sequence (P08753 whole entry, looked up): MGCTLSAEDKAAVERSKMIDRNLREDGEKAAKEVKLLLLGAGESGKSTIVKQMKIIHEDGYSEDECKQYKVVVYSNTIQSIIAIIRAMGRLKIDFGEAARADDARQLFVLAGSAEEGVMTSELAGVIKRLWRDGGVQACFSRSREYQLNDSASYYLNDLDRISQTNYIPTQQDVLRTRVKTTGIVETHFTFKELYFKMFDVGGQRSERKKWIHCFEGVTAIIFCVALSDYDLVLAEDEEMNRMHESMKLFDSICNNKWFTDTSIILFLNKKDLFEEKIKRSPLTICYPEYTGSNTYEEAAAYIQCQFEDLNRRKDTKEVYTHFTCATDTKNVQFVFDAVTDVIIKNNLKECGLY
Sa growth inh second temp = recorded beside Sa growth inh, whose call it bears; relative growth, %; measured here: growth at 30 °C;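 optical density after 20 h as mean of two plates; 100% = untreated growth and lower means inhibition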
* = called active by the depositor; . = no result given. Outcome played no part in choosing rows, and some 0.79% of all compounds hit somewhere here.

SMILES | Sa growth inh | Sa growth inh second temp | HCMV NEC inh | GIV Gai3 FP
CCC(CC)C(=O)Nc1ccccc1SCc1cc(=O)c2cccc(C)c2[nH]1 | 93 | 86 | . | 109
O=C(NCCc1ccccc1Cl)c1ccc2c(c1)nc1n2CCOC1 | 104 | 90 | . | 105
C=COC(=O)CSc1nc(-c2cccs2)ccc1C#N | 89 | 107 | -49 | 112
Cc1ccc(-c2c(C(=O)NCCc3ccc(Cl)cc3)oc(=O)c3ccccc23)cc1 | 101 | 72 | -13 | 103
Cc1[nH]c(-c2ccc(F)cc2)cc1C(=O)N1CCN(c2ccccc2F)CC1 | 101 | 53 | 20 | 106
O=C(Nc1ccccc1C(=O)OCc1cc(=O)n2c3c(sc2n1)CCCC3)c1cccc(Cl)c1 | 103 | 88 | . | 97
Cc1cnc(NC(=O)C2CCC(C(C)(C)C)CC2)s1 (stereo unspecified) | 97 | 86 | -10 | .
CC(C)N1C(=O)/C(=C\c2cccc3ccccc23)SC1=S | 92 | 78 | -35 | .
CCOc1ccc(NS(=O)(=O)c2cc(C(=O)N3CCN(c4ccccc4)CC3)n[nH]2)cc1 | . | . | -8 | 96
[O-]/[N+](Cc1ccccc1F)=N\O | 115 | 82 | -6 | 112
Cc1ccc(-n2nc3ccc(NC(=O)C(C)C)cc3n2)cc1 | 106 | 79 | -11 | .
COc1ccc2oc(=O)cc(CN3CCN(C(=O)c4ccccc4Br)CC3)c2c1 | 103 | 71 | -8 | 102
Cc1ccc(NC(=O)Cn2c(=O)oc3cc(S(=O)(=O)N4CCC(C)CC4)ccc32)cc1Cl | 112 | 87 | 26 | 109
Clc1cccc(Cc2cn3cc(-c4ccccc4)nc3s2)c1 | 109 | 101 | . | 101
CN(Cc1cccs1)CC(O)COCc1ccco1 (stereo unspecified) | 86 | 90 | -36 | .
CC(C)NC(=O)N1CCCC(c2cccc(C(=O)N3CCCCC3)c2)C1 (stereo unspecified) | . | . | -8 | 117
CC(=O)NC12CC3CC(C1)CC(C(=O)OC(C)C(=O)Nc1ccccc1C#N)(C3)C2 (stereo unspecified) | 84 | 90 | -21 | .
COC(=O)C1=C(C)OC(N)=C(C#N)C1c1cc2ccc(C)cc2[nH]c1=O (stereo unspecified) | 84 | 79 | -75 | 110
NC(=S)N1N=C(c2cccs2)CC1c1ccco1 (stereo unspecified) | 90 | 90 | -56 | .
COCCNC(=O)CCc1nc2sc3c(c2c(=O)[nH]1)CCCCC3 | . | . | -9 | 104

Seven entries from above in a different format.
smiles,Sa growth inh,Sa growth inh second temp,HCMV NEC inh,GIV Gai3 FP
Cc1ccc(-n2nc3ccc(NC(=O)C(C)C)cc3n2)cc1,106,79,-11,.
COc1ccc2oc(=O)cc(CN3CCN(C(=O)c4ccccc4Br)CC3)c2c1,103,71,-8,102
Cc1ccc(NC(=O)Cn2c(=O)oc3cc(S(=O)(=O)N4CCC(C)CC4)ccc32)cc1Cl,112,87,26,109
Clc1cccc(Cc2cn3cc(-c4ccccc4)nc3s2)c1,109,101,.,101
CN(Cc1cccs1)CC(O)COCc1ccco1 (stereo unspecified),86,90,-36,.
CC(C)NC(=O)N1CCCC(c2cccc(C(=O)N3CCCCC3)c2)C1 (stereo unspecified),.,.,-8,117
CC(=O)NC12CC3CC(C1)CC(C(=O)OC(C)C(=O)Nc1ccccc1C#N)(C3)C2 (stereo unspecified),84,90,-21,.

(listing goes on)
SMILES | Sa growth inh | Sa growth inh second temp | HCMV NEC inh | GIV Gai3 FP
COc1ccccc1CNc1ncnc2c1nc1n2CCCC1 | 103 | 86 | -6 | 106
Cc1ccc(C2CCN(C(=O)c3cnn(-c4ccc(C)c(C)c4)c3C3CCN(C(=O)OC(C)(C)C)CC3)C2)cc1 (stereo unspecified) | 101 | 90 | . | 107
CN1CCC(N(C)C(=O)c2cc3sc4ccccc4c3s2)CC1 | 71 | 96 | 9 | .
COC(=O)C1=C(c2ccccc2)c2ccccc2S(=O)(=O)N1CC(=O)Nc1cccc(C)c1 | . | . | -44 | 103
C=CCSc1nn(C(C)C)c2nc3c(c(=O)n12)C(C)(C)Cc1ccccc1-3 | . | . | -20 | 104
COc1ccc2nc3oc(C(=O)N4CCC(N5CCCCC5)CC4)cc3cc2c1 | 95 | 79 | . | 106
CC1CCC(N2CC(=O)N(C3CCCC3)C(c3ccc(Cl)cc3)C2=O)CC1 (stereo unspecified) | 84 | 82 | . | 103
O=C(Nc1ccc2nc(SCCOc3ccccc3)sc2c1)c1ccc2c(c1)OCO2 | 103 | 85 | -17 | 99
Cc1nn(-c2ccccc2)c2sc(C(=O)OCC(=O)C(C)(C)C)cc12 | 100 | 99 | 12 | .
CC(=O)N1CCc2cc(S(=O)(=O)NC(C(=O)Nc3ccc(C)cc3C)C(C)C)ccc21 (stereo unspecified) | 94 | 103 | -9 | 102

Looked up above:
Cc1nn(-c2ccccc2)c2sc(C(=O)OCC(=O)C(C)(C)C)cc12 – Sa growth inh second temp: 99
COc1ccc2nc3oc(C(=O)N4CCC(N5CCCCC5)CC4)cc3cc2c1 – GIV Gai3 FP: 106

Next structures follow.
SMILES | Sa growth inh | Sa growth inh second temp | HCMV NEC inh | GIV Gai3 FP
COC(=O)c1ccc(C)c(NC(=O)CCn2[nH]c(=O)ccc2=O)c1 | 80 | 94 | -15 | .
O=S(=O)(c1cccc2nsnc12)N1CC(OCc2ccc(F)cc2Cl)C1 | . | . | -72 | 100
O=C(Cn1cnc2c(cnn2-c2ccccc2)c1=O)N1CCCC1 | 108 | 86 | 5 | 106
Cc1cc(C(=O)O)nn1-c1ccccc1 | 100 | 92 | -42 | 101
CCC(C)NC(=O)c1sc2nc(C)c(C(=O)Nc3ccc(C)cc3C)c(-c3ccccc3Cl)c2c1N (stereo unspecified) | 99 | 96 | -20 | 103
CCOC(=O)C1CCN(c2nc3ccccc3n(CC)c2=O)CC1 | . | . | -48 | 100
COc1ccc(C2=NS(=O)(=O)N(C)C(C(=O)NC(C)c3ccccc3)=C2)cc1 (stereo unspecified) | 123 | 80 | -26 | 103
O=C(NCCSc1c(-c2ccc(F)cc2)[nH]c2ccccc12)c1ccc(S(=O)(=O)N2CCOCC2)cc1 | 115 | 93 | -2 | 108
COc1cc(OC)cc(OC)c1 | 90 | 90 | -18 | .
CC(N=Cc1ccccc1O)c1ccccc1 (stereo unspecified) | 115 | 95 | . | 96
COc1ccc(C2CC(C(F)(F)F)n3nc(C(=O)N4CCN(c5ccccc5)CC4)c(Cl)c3N2)cc1OC (stereo unspecified) | . | . | -25 | 92
O=S1(=O)CCC(NS(=O)(=O)c2ccccc2)C1 (stereo unspecified) | 89 | 78 | -4 | 105
O=C(O)C1CCN(C(=O)c2cc3sccc3n2Cc2ccc(F)cc2)CC1 | 116 | 102 | 4 | 102
Cc1ccc(-c2cc(C(F)(F)F)n3nc(-c4cccc(Br)c4)cc3n2)cc1 | 109 | 90 | -8 | 102
Cc1csc(=O)n1CCN1C(=O)NC2(CCC(C)CC2)C1=O (stereo unspecified) | 94 | 92 | 9 | .
Cc1ccc(Cl)cc1NC(=O)Cn1c(=O)n(C(C)C)c(=O)c2oc3ccccc3c21 | 108 | 95 | . | 96
O=C(NCc1ccco1)c1ccc(Oc2cc(Cl)cc(Cl)c2)o1 | 106 | 88 | -20 | 98
NC(=O)COC(=O)c1cc(-c2ccccc2)c(N2CCOCC2)s1 | 84 | 94 | -53 | .
O=C(NCc1ccccc1F)c1sc2ncccc2c1-n1cccc1 | 83 | 84 | . | 99
CCC1CCCCN1Cc1cn2c(-c3ccc(Br)cc3)nnc2s1 (stereo unspecified) | 124 | 85 | . | 103
CC(=O)Nc1cc2c(ccc3ccccc32)oc1=O | 115 | 82 | . | 104
OCc1cc2c(s1)CCCC2 | 105 | 92 | . | 104
CS/C(=N\S(=O)(=O)c1cccs1)NC(=O)c1ccccc1 | 98 | 92 | -6 | .
COc1nc(N2CCCCCC2)nc(N2CCCCCC2)n1 | 112 | 102 | -24 | 104
CN(C)Cc1ccccc1CNC(=O)c1cc(Cl)nc(Cl)c1 | 70 | 90 | -29 | .
COC(=O)C1CCN(CC(=O)Nc2cc(C)c3c(=O)oc4ccccc4c3n2)CC1 | 113 | 84 | -18 | 111
Cc1oc2ncn(C)c(=O)c2c1C(=O)N1CCN(c2ccccc2F)CC1 | 104 | 86 | -20 | 100
Cc1ccc(C(=O)c2cnc3cc4c(cc3c2N2CCC(C(N)=O)CC2)OCO4)cc1C | 106 | 43 | . | 107
CCN1c2ccccc2-n2cccc2C12CCN(C(=O)Nc1cc(C)ccc1C)CC2 | . | . | -30 | 99
CCOc1ccc(CCNC(=O)c2cn(C)c3ccc(S(=O)(=O)N4CCCCC4)cc3c2=O)cc1OCC | 99 | 101 | 22 | 102
Cc1ccc(S(=O)(=O)N2CCOCC2)c(C)c1 | 117 | 99 | . | 101
CN(C)C1=NS(=O)(=O)c2ccccc21 | . | . | -22 | 100
O=c1ccc(-c2ccccc2)nn1CCN1CCCCC1 | 98 | 90 | -29 | 98
CC1CCCCC1n1c(SCc2cc(=O)n3ccsc3n2)nnc1-c1cccnc1 (stereo unspecified) | 67 | 93 | -28 | .
CCCCn1c(=O)n(C)c(=O)c2c(C(=O)OC)cc(-c3ccccc3OC)nc21 | 81 | 83 | -21 | .
O=C(CSc1ncc(CO)n1Cc1ccc(Cl)cc1)NCc1ccc(F)cc1 | 97 | 81 | . | 100
Cc1cc(C)cc(NC(=O)NCCCn2c(-c3ccncc3)nc3cccnc32)c1 | . | . | 7 | 109
COc1ccccc1N1CCN(C(=O)c2ccc[nH]c2=S)CC1 | 100 | 75 | -31 | 108
O=C(C1=NN(C2CCS(=O)(=O)C2)C(=O)CC1)N1CCc2ccccc21 (stereo unspecified) | 89 | 85 | -32 | .
O=C(Cn1cc(/C=c2/sc3nc4ccccc4n3c2=O)c2ccccc21)N1CCCC1 | 100 | 89 | -27 | 80*
Cc1c(C#N)c(NC(=O)c2ccc(Cl)cc2)n(Cc2cccnc2)c1C | 103 | 87 | 6 | 104
COc1ccc(C2=NN(S(C)(=O)=O)C(c3cn(-c4ccccc4)nc3-c3ccc(C)cc3)C2)cc1 (stereo unspecified) | . | . | -16 | 113
Cn1nnnc1SCC(=O)c1ccc2c(c1)CCC(=O)N2 | 91 | 56 | -27 | .
Nc1ncc(C(=O)OCc2ccc(Cl)cc2)c(C(F)(F)F)n1 | 119 | 88 | -1 | 106
O=C(NC1CC(=O)N(c2cccc(F)c2)C1)c1cc2ccccc2o1 (stereo unspecified) | 132 | 84 | . | 100
CC1CCN(C(=O)c2cc3nc(-c4ccco4)cc(C(F)(F)F)n3n2)C(C)C1 (stereo unspecified) | 98 | 85 | . | 106
O=C1C2C3C=CC(C3)C2C(=O)N1CCN1CCN(S(=O)(=O)c2cccs2)CC1 (stereo unspecified) | 125 | 74 | -10 | 99
Cc1ccc(CN2CCCN(Cc3c(C)cc(C)cc3C)S2(=O)=O)cc1 | 96 | 84 | . | 101
O=C(CSc1cccc[n+]1[O-])NC(=O)NC1CCCC1 | 99 | 88 | -16 | .
NNc1ccc(C(F)(F)F)cn1 | . | . | 6 | 105

Sorted by the number under Sa growth inh second temp (rising): 4 from the list above.
smiles	Sa growth inh second temp	GIV Gai3 FP
Cn1nnnc1SCC(=O)c1ccc2c(c1)CCC(=O)N2	56	.
O=C(NC1CC(=O)N(c2cccc(F)c2)C1)c1cc2ccccc2o1 (stereo unspecified)	84	100
CN(C)Cc1ccccc1CNC(=O)c1cc(Cl)nc(Cl)c1	90	.
COc1nc(N2CCCCCC2)nc(N2CCCCCC2)n1	102	104

Next part.
SMILES | Sa growth inh | Sa growth inh second temp | HCMV NEC inh | GIV Gai3 FP
Cc1c2cnn(CC(=O)N3CCC(Cc4ccccc4)CC3)c(=O)c2c(C)n1Cc1ccccc1F | . | . | -12 | 103
CCCn1c(/N=C/c2ccccc2Cl)nc2ccccc21 | 80 | 96 | 13 | .
Cc1ccc(-n2cc(C(C)(C)C)[nH]c2=S)cc1 | 99 | 91 | -8 | 103
O=C1CCC(=O)N1CN(Cc1ccccc1)CN1C(=O)CCC1=O | 84 | 70 | -73 | 109
CCOC(=O)NC(=O)Cn1c(=O)cnc2ccccc21 | 82 | 82 | -67 | .
Cc1ccc(C)c(N2CCN(C(=O)Cn3ncc4c(=O)oc5ccccc5c43)CC2)c1 | 105 | 91 | -12 | 102
CCOc1ccc(-c2csc(-c3cc4cc(Br)ccc4oc3=O)n2)cc1 | . | . | 0 | 113
Cc1c(C(N)=O)nnc2cc(-c3ccccc3)nn12 | 104 | 85 | -46 | 106
O=C(NCc1ccccc1)c1ccc(Cn2c(=O)c3cccn3c3cccnc32)cc1 | 93 | 101 | . | 109
CCNC(=S)/N=C(\N)Nc1nc(C)c2cc(C)ccc2n1 | 133 | 78 | 15 | 112
O=C(Nc1ccc2nc(NC(=O)c3ccc([N+](=O)[O-])cc3)sc2c1)c1ccc([N+](=O)[O-])cc1 | . | . | -18 | 95
CCn1c(O)c(/C=N/c2ncn[nH]2)c(=O)n(CC)c1=S | 96 | 104 | 20 | .
CCN1CCN(C(=O)c2cc3n(n2)CC(C)(C(=O)NC2CCCC2)N(C)C3=O)CC1 (stereo unspecified) | . | . | -13 | 100
C=CCn1c(CN2CCOCC2)nc2ccccc21 | . | . | -7 | 103
Cc1ccc2[nH]cc(CCNC(=O)c3ccc(N4CCCC4)c(S(=O)(=O)N4CCCC4)c3)c2c1 | . | . | -12 | 102

Bioassay records deposited in PubChem BioAssay by ICCB-Longwood Screening Facility, Harvard Medical School.
